Screens as filed in PubChem.
LASV entry inh – qHTS for Inhibitors of binding or entry into cells for Lassa Virus; Lassa virus pseudotype entry inhibition, cell reporter; control for the full effect not named in the record; Potency, µM (doses to about 37.9 µM), for inactives: top-dose activity change, negative = inhibition, usual class: inhibitors; 300,000 compounds, 1.2% hits; AID 540256, 2011; active means well fitted inhibition curve with a large enough effect; inconclusive means small, poorly fitted or top-dose-only effect, or effect the other way; inactive means flat fitted curve, though single readings scatter; tested in HEK293 cells; further: on the % scale 0 is the no-effect control and ±100 the full control effect; nearly all actives have a fitted effect of over 50% in size; luciferase read-out
SARS PLP yeast – qHTS of Yeast-based Assay for SARS-CoV PLP. S. cerevisiae expressing SARS-CoV PLpro, growth rescue; control for the full effect not named in the record. Potency, µM (titrated, usually from 32.9 µM), inactives show at the top dose activity, positive = growth rescue. 330,000 compounds, 0.19% hits; further: 0% is about no effect; nearly all actives have a fitted effect of over 55% in size; growth read by luminescence after 48 h
MARV entry inh – qHTS for inhibitors of binding or entry into cells for Marburg Virus. Potency, µM (series often up to 37.8 µM), for inactives: at the top dose activity change, negative = inhibition, actives largely listed as inhibitors. Marburg virus pseudotyped entry inhibition, cell reporter; control for the full effect not named in the record; about a third of the inactives were read at about 46 µM. 300,000 compounds, 1.8% hits; active = well fitted inhibition curve with a large enough effect; inconclusive = small, poorly fitted or top-dose-only effect, or effect the other way; inactive = flat fitted curve, though single readings scatter; tested in HEK293 cells; about a fifth of its hits are not listed in these tables; further: on the % scale 0 is the no-effect control and ±100 the full control effect; luciferase read-out
Cruzain noTriton – qHTS Assay for Promiscuous and Specific Inhibitors of Cruzain (without detergent). Cruzipain (Trypanosoma cruzi), P25779. purified cruzain, Z-FR-AMC fluorescence, no detergent. Potency, µM, for the others: max response, negative = inhibition, hits mostly inhibitors. 200,000 compounds, 2.3% hits; active means well fitted curve in the direction sought with a large enough effect; inconclusive means small, poorly fitted or top-dose-only effect, or another doubt; inactive means no such curve, though single readings can be large; an effect the other way counts as inactive or inconclusive;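 further: plate controls were enzyme without inhibitor for no effect and buffer without enzyme for full effect; nearly all actives have a fitted effect of over 40% in size; top concentration of the series not given in the record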
Target sequence (P25779 123-467 limits assumed): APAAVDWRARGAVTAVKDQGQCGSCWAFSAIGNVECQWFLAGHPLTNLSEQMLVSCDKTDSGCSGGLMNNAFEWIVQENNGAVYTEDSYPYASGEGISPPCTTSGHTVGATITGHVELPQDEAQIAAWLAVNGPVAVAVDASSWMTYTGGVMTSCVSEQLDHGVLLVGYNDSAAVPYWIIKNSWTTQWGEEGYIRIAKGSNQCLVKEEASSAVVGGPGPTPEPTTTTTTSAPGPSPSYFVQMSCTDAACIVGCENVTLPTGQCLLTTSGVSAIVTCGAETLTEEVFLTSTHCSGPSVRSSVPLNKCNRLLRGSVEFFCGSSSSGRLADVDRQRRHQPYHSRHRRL
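Detergent-free condition (0.00005% Triton X-100) in acetate buffer pH 5.5 with DTT. 1.5 nM enzyme and compound were pre-mixed 15 min, then 2 uM Z-FR-AMC substrate added; reaction progress from fluorescence change between first and third reads (60 s).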
NS1 function inh – qHTS Assay for Inhibitors of Influenza NS1 Protein Function. S. cerevisiae slowed by influenza A NS1, growth recovery by OD600. Potency, µM (highest dose often 46.1 µM), without a hit: at the highest dose activity, positive = more growth. 270,000 compounds, 0.4% hits. AID 2326, 2010; further: actives are rising curves; nearly all actives have a fitted effect of over 50% in size
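Recovery from NS1-induced slow growth read by OD600 in budding yeast switched to galactose assay medium (pH 6.0, -URA) at 1:100 dilution. Compound 23 nl per well; the matching strain lacking NS1 serves as control.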
Cruzain inh Det – qHTS Assay for Promiscuous and Specific Inhibitors of Cruzain (with detergent) | Cruzipain (Trypanosoma cruzi), P25779 | purified cruzain, Z-FR-AMC fluorescence, 0.01% Triton | Potency, µM, for the others: max response, negative = inhibition, hits mostly inhibitors | 200,000 compounds, 0.43% hits | AID 1478, 2009; active means well fitted curve in the direction sought with a large enough effect; inconclusive means small, poorly fitted or top-dose-only effect, or another doubt; inactive means no such curve, though single readings can be large; an effect the other way counts as inactive or inconclusive;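 further: plate controls were neutral wells for no effect and buffer without enzyme for full effect; nearly all actives have a fitted effect of over 40% in size; top concentration of the series not given in the record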
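Read-out: AMC fluorescence (360 nm excitation, 450 nm emission), four reads over 2 min, first-to-third difference used. Conditions: cruzain 1.5 nM, Z-FR-AMC 2 uM, pH 5.5 acetate, 5 mM DTT, 0.01% Triton X-100.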
RE007 growth inh – qHTS Assay for Inhibitors of the HIV-1 protein Vpr; Potency, µM (top dose mostly 92.2 µM), for the others: at the top dose activity change, negative = less growth; AID 651644, 2012; S. pombe RE007 Vpr strain, BacTiter-Glo ATP luminescence, 24 h; control for the full effect not named in the record; 360,000 compounds, 0.21% hits; active = well fitted falling curve with a large enough effect; inconclusive = small, poorly fitted or top-dose-only effect; inactive = no such curve, though single readings can be large or run the other way;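 further: on the % scale 0 is the no-effect control and ±100 the full control effect; nearly all actives have a fitted effect of over 50% in size; the assay follows cell death caused by Vpr and the record does not say whether a fall means rescue or toxicity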
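Fission yeast strain RE007, carrying one chromosomally integrated HIV-1 vpr copy, was seeded at OD 0.01 in PMG+AL medium with 23 nL pinned compound. After 24 h at 30 °C and 99% humidity, viability was read by BacTiter-Glo luminescence.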
StopGo reporter – High Throughput Screening for Foot and Mouth Disease Virus Antivirals | 410,000 compounds, 1.2% hits | human cells with a luciferase reporter of 2A StopGo recoding; control for the full effect not named in the record | Potency, µM (titrated, usually from 57.9 µM), for the others: top-dose signal change, negative = less light | AID 1159524, 2015; active = well fitted falling curve with a large enough effect; inconclusive = small, poorly fitted or top-dose-only effect; inactive = no such curve, though single readings can be large or run the other way; tested in HEK293T cells; further: on the % scale 0 is the no-effect control and ±100 the full control effect; nearly all actives have a fitted effect of over 45% in size; luciferase light after 4 h
Numbers without * were called inactive; ? = inconclusive; / = not tested or not shown; & = joins results of further samples; [ ] = dose if it differs, or a comment. Unless noted, the call rests on the fitted dose curve; in most records, active means well fitted rising curve with a large enough effect; inconclusive means small, poorly fitted or top-dose-only effect; inactive means no such curve, though single readings can be large or run the other way. Potency means the concentration at half of the fitted maximal effect. Compounds as they come; 4.7% or so of the library scored in one or more.

SMILES	LASV entry inh	SARS PLP yeast	MARV entry inh	Cruzain noTriton	NS1 function inh	Cruzain inh Det	RE007 growth inh	StopGo reporter
CC(=O)c1c(C)[nH]c(C(=O)CN2C(=O)NC(CCc3ccccc3)C2=O)c1C (configuration not stated)	/	-1%	/	/	5%	/	8%	-32%
CCC(=O)N(c1nnc(SCC(=O)c2ccc[nH]2)s1)C1CC1	9%	-6%	17%	/	/	/	0%	9%
CCOc1ccc([N+](=O)[O-])cc1CNCCc1ccccc1	-2%[46.1 µM]	0%	-3%[46.1 µM]	/	0%	/	-10%	-3%
OCCC1CN(Cc2cccn2-c2nccs2)CCN1Cc1ccccc1 (configuration not stated)	/	0%	/	/	0%	/	-2%	-20%
CCOc1ccc(N(Cc2ccccc2)C(=O)c2nc(S(C)(=O)=O)ncc2Cl)cc1	2.5µM*	/	?	?	/	-10%	/	16µM*
O=C(NCc1ccccc1F)C1CCN(C(=O)NCc2ccccc2)CC1	-2%	5%	6%	10%	-4%	6.1%	2%	31%[activator]
S=C(NCCc1ccccc1)Nc1ccc(Cl)cc1Cl	-12%	-2%	4%	-6%	6%	-4.8%	?	59%[activator]
COc1ccc(NS(=O)(=O)c2ccc(SC)cc2)c(OC)c1	-1%	-3%	?	-11%	4%	-1.4%	2%	1%
COc1cccc2[nH]c3c(N4CCc5ccccc5C4)ncnc3c12	?	1%	7%[46.1 µM]	/	-3%	/	-9%	?
COc1cc(OC)c(NC(=O)c2ccoc2C)cc1Cl	-7%	-4%	?	-9%	-2%	3.5%	8%	1%
CCOC(=O)c1cc2c(ccc3ccccc32)oc1=O	/	-1%	/	/	-37%	/	?	17%
COc1ccc(-c2n[nH]c3c2C(c2ccc(Cl)cc2Cl)NC3=O)cc1 (configuration not stated)	?	/	-14%[46.1 µM]	5%	/	-15%	/	?
COc1cc2nc(CSc3nc(-c4ccc(F)cc4)cs3)[nH]c(=O)c2cc1OC	?	-5%	?	-4%	15%	-4.2%	-24%	?
O=C(NC(Cc1ccccc1)C(=O)O)/C(=C/c1ccc([N+](=O)[O-])cc1)NC(=O)c1ccccc1Br (configuration not stated)	11%	3%	9%	/	/	/	4%	-2%
CCOc1cc(C(=O)N2CCc3c([nH]c4ccccc34)C2c2ccccc2)cc(OCC)c1OCC (configuration not stated)	?	/	/	?	/	-3.5%	/	-2%
COc1ccccc1CNC(=O)CSc1ccc(-c2cccc([N+](=O)[O-])c2)nn1	1%	-2%	-1%[46.1 µM]	/	/	/	16%	4%
CCOC(=O)N1CCN(C(=O)CSc2nnc(Cc3cccn3C)n2CCc2ccccc2)CC1	-33%[14.3 µM]	4%	1%	?	16%	0.7%	2%	?
CCc1ccc(OCC(=O)Nc2ccc(-c3cc4ccccc4oc3=O)c(OC)c2)cc1	3%	6%	?	?	23%	-8.2%	-12%	?
O=C(Nc1cccc(C(F)(F)F)c1)OC1CN2CCC1CC2 (configuration not stated)	/	0%	/	/	1%	/	8%	-15%
c1ccc(-c2nnc(SCc3nnc(-c4cccs4)o3)o2)cc1	-1%	-13%	?	-9%	-78%	-1.7%	-6%	-8%
Cc1ccc(OCC(=O)Nc2cccc(S(=O)(=O)N3CCOCC3)c2)c([N+](=O)[O-])n1	9%	-1%	3%[46.1 µM]	/	/	/	3%	-15%
COc1ccc2sc(N(Cc3cccnc3)C(=O)COc3ccccc3)nc2c1	0%[46.1 µM]	/	/	9%	/	-5.9%	/	-11%
CC(=O)Nc1ccc(S(=O)(=O)NCc2cn3c(C)csc3n2)cc1	3%	5%	-1%	4%	-30%	-2.7%	5%	/
CC(C)CN(C(=O)COC(=O)c1ccc(Br)o1)c1c(N)n(Cc2ccccc2)c(=O)[nH]c1=O	-19%	5%	-3%	/	/	/	10%	-4%
Cc1cc(C)cc(NC(=O)C2CCCN(S(=O)(=O)c3ccc4[nH]c(=O)ccc4c3)C2)c1 (configuration not stated)	/	-2%	/	/	19%	/	-3%	0%
Cc1cccc(C)c1OCc1nc2c3c(-c4ccccc4)c(-c4ccccc4)oc3ncn2n1	15%[46.1 µM]	/	/	-5%	/	0.7%	/	-12%
O=[N+]([O-])c1ccc(CN2CCN(c3nc4ccccc4s3)CC2)cc1	19%	2%	1%[46.1 µM]	/	6%	/	6%	-10%
CCc1cc(C(=O)Nc2c(C)nn(Cc3ccccc3Cl)c2C)no1	?	/	?	5%	/	-1.2%	/	-24%
COc1ccc(C(=O)NNC(=O)c2cccc(F)c2)cc1	14%	2%	8%[46.1 µM]	/	7%	/	1%	10%
COc1ccc(N2CCN(C(=O)CNC(=O)c3nn(-c4ccc(OC)cc4)c(=O)c4ccccc34)CC2)cc1	?	1%	?	/	-11%	/	7%	-6%
CC1CCN(S(=O)(=O)c2ccc(-c3nnc(SCc4cccnc4)o3)cc2)CC1	4%	6%	-17%	-12%	-3%	-1.9%	-13%	3%
Cc1ccc(C(=O)NC2(C(F)(F)F)N=C(c3ccccc3)N(Cc3ccccc3)C2=O)cc1 (configuration not stated)	0%[46.1 µM]	/	-42%[46.1 µM]	10%	/	-5.1%	/	-23%
NS(=O)(=O)c1cc(C2(O)NC(=O)c3ccccc32)ccc1Cl (configuration not stated)	9%	0%	-33%	-8%&-6%	-2%	2.1%&0.6%	12%	7%&0%
Cc1cccc(C(=O)Nc2sc3c(c2C(=O)NCc2ccco2)CCCC3)c1	?	/	?	-9%	/	3.4%	/	30%
CCc1nn(CC(=O)NCCCOC)c(=O)c2cc3occc3n12	23%[46.1 µM]	/	3%[46.1 µM]	-10%	/	-3.7%	/	-11%
Cn1cc(Cl)c(C(=O)N/N=C/c2ccc(OS(=O)(=O)c3ccccc3)cc2)n1	8%	25%	7%	-1%	-22%	-6.5%	10%	5%
CC(O)[C@@H](NC(=O)C1CCC(CNC(=O)[C@H](Cc2ccccc2)NC(=O)OC(C)(C)C)CC1)C(=O)O (some centres not stated)	/	0%	/	/	-1%	/	1%	-8%
COc1ccccc1NC(=S)N(Cc1ccccc1)Cc1ccccn1	?	16%	?	-14%	-24%	-5.7%	-10%	13%
Cc1c(NC(=O)COc2cccc(F)c2)c(=O)n(-c2ccccc2)n1C	1%	-9%	23%	/	/	/	0%	-11%
O=C(NCC1CCCN(Cc2cccc(OCCO)c2)C1)c1ccc(F)cc1 (configuration not stated)	/	-1%	/	/	2%	/	-5%	-10%
N#Cc1c(-c2ccc(F)cc2)ccnc1N1CCOCC1	-11%[46.1 µM]	-1%	?	/	-5%	/	-8%	1%
CCOc1ccc2nc(NC(=O)CSc3nc4c(c(=O)n(C)c(=O)n4C)n3C(C)C)sc2c1	-8%	-4%	?	?	7%	-2.3%	-6%	22µM*
C#CCSc1cc(C(F)(F)F)nc(-c2ccccn2)n1	2%	-4%	-11%[46.1 µM]	/	-1%	/	-5%	-4%
Cc1ccc(SCC(=O)Nc2c(Br)cnn2C)cc1	8%[46.1 µM]	1%	?	/	-4%	/	-4%	-6%
CCOC(=O)c1c(-c2cccc([N+](=O)[O-])c2)csc1N	-4%	-2%	-3%	-2%	6%	-8.9%	-13%	-23%
O=C(CCC(=O)N1CCN(c2ccccc2F)CC1)N1CCN(c2ccc(F)cc2)CC1	?	-8%	-2%	/	-17%	/	3%	22µM*
COc1cccc(-c2nc(C(=O)NCC3CCCO3)cc3c2[nH]c2ccccc23)c1 (configuration not stated)	/	-30%	/	/	-55%	/	-9%	?
CC1CC(C)CN(C(=O)COC(=O)CCc2nc3ccccc3c(=O)[nH]2)C1 (configuration not stated)	?	-9%	?	0%	6%	-0.4%	/	-6%
Cc1ccc(CNC(=O)CCC2CCCN(Cc3cccc4c3OCO4)C2)o1 (configuration not stated)	-15%	-2%	-13%[46.1 µM]	/	1%	/	-3%	-17%
COc1ccccc1Cn1nnc2c(=O)[nH]c(C3CCN(C(=O)c4ccc(F)cc4)CC3)nc21	-15%	6%	-8%&-8%	?	3%	4.9%	30%	-11%
Next part
SMILES	LASV entry inh	SARS PLP yeast	MARV entry inh	Cruzain noTriton	NS1 function inh	Cruzain inh Det	RE007 growth inh	StopGo reporter
CC1CCN(c2oc(Cc3cccc4ccccc34)nc2C#N)CC1	-15%	-2%	1%	-3%	-80%	2.0%	5%	-18%
NNC(=O)c1ccc(S(=O)(=O)N2CCc3ccccc32)cc1	0%	-2%	3%	/	?	/	14%	-19%
N#C/C(=C(/O)COc1ccccc1)c1nc2ccccc2s1	?	/	16%[46.1 µM]	/	/	/	-8%	18%
Cc1cc(OCC(=O)NC2CC2)c2c(C)c(C)c(=O)oc2c1	/	1%	/	/	0%	/	-2%	3%
CCc1ccccc1-n1nnnc1SCC(=O)Nc1cc(C)on1	-11%	1%	-2%	/	6%	/	34%	-10%
Clc1cccc(Cl)c1COc1ccncc1	7%	?	14%	-5%	-8%	0.7%	7%	-22%
Cc1ccc(N=Nc2ccc3ccccc3c2O)cc1	4.5µM*	3%	?	/	30%	/	-10%	7.9µM*
Cc1cccc(CCNS(=O)(=O)c2ccc3c(c2)NC(=O)CS3)c1	/	4%	/	/	9%	/	10%	32%[activator]
O=S1c2ccccc2Sc2ccccc21	10%	/	28%	/	/	/	7%	0%
COCCN(CCOC)C(=O)COC(=O)c1cc([N+](=O)[O-])ccc1Cl	/	0%	/	/	4%	/	6%	-6%
COc1ccc(CNC(=O)c2ccc(S(=O)(=O)N3CCCC3)cc2)cc1OC	14%	?	-2%[46.1 µM]	-2%	0%	2.1%	5%	?
